Bioassay records: PubChem, several laboratories
Bead autofluor – flagged as autofluorescent in microsphere protease counterscreen; AID 624483; fluorescence intensity (concentration not given with the values); compound autofluorescence counterscreen, microsphere flow cytometry; hits give high values; actives 3.1% (n = 360,000);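 active = at least 3 SD above the mean of all compounds, about 16000 in these data; inconclusive = too few beads counted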;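 note: 100 nL of 1 mM stock went into each well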
Sa RN4220 lethal – S. aureus RN4220 growth inhibition; OD600, 16 h; inhibition, % (test concentration not listed); actives 0.33% (n = 330,000); AID 1259311;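 active = z-score of -3 or lower and OD600 up to 0.18 on both plates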;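 note: plate controls were untreated cells for no effect and reference antibiotic for full effect; stock transfer was 100 nL into about 80 µL; one replicate is shown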
Mtb hypoxia rep – Mtb hypoxia fluorescent reporter inhibition. fluorescence inhibition, % (no concentration beside the values). actives 0.1% (n = 300,000). M. tuberculosis hypoxia-regulated fluorescent reporter, fluorescence. AID 1159583;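 active = 35 to 45% if threefold the growth effect, above 45% if 1.5-fold the growth effect; inactive = the rest, general growth blockers included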;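 note: wells of about 50 µL received 100 nL stock; 0% = vehicle wells and 100% = reference inhibitor wells; whole bacteria with a GFP reporter of the hypoxia response; strong numbers were not always called active; many hits fall short of the cut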
PrP UTR inh – inhibition of PrP 5' UTR reporter expression; AID 488862; actives 0.35% (n = 340,000); inhibition, % (concentration not given with the values); cell-based PrP 5' UTR mRNA reporter, plate reader;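 active = every replicate at 50% or more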;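 note: 0 = median of the neutral control wells; tested in H4 reporter cells; numbers are from one replicate; inactives centre near -14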
ugtP null kill – compounds lethal to S. aureus RN4220 ugtP deletion mutant. OD600 growth, 16 h; some inactives read as strong as hits. growth inhibition, % (concentration not given with the values). actives 0.54% (n = 330,000);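 active = z-score under -3 and OD600 up to 0.15 on both plates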;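 note: plate controls were untreated wells for no effect and antibiotic for full effect; wells of about 80 µL received 100 nL stock; the first replicate is given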
BJeLR lethal – BJeLR cell viability loss | BJeLR (HRASV12) viability, CellTiter-Glo ATP luminescence, 48 h; reference of the scale not given here | inhibition, % (concentration not given with the values) | actives 0.17% (n = 300,000) | AID 1554;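 active = replicate mean above 50%; inconclusive = above 50% but judged a plate artefact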;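 note: 50 nL library stock added to about 25 µL; numbers are from one replicate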
Mtb hypoxia rep growth – second read-out of Mtb hypoxia rep, no call of its own (marks repeat the call); growth inhibition, %; measured here: M. tuberculosis growth (absorbance);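 0% = vehicle and 100% = reference antibiotic; read after six days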
The depositor's hits bear a star; u = inconclusive; x = not tested or not shown; & = joins results of further samples.

Sequence of screens – Bead autofluor	Sa RN4220 lethal	Mtb hypoxia rep	Mtb hypoxia rep growth	PrP UTR inh	ugtP null kill	BJeLR lethal
1. COC(=O)c1ccc(Nc2nnc(-c3ccc(C)c(S(=O)(=O)NCC4CCCO4)c3)c3ccccc23)cc1 (configuration not stated)
  6350	x	x	x	-12	x	-3
2. COc1cc2sc3cc(NCc4ccc5c(c4)OCO5)ccc3c(=O)c2cc1OC
  3072	21	0	0	-17	-4	x
3. CC(C)c1ccc(-c2c(NCCc3ccccc3)c(=O)c2=O)cc1
  3158	-2.8	-2	-6	1	-5	5
4. COc1ccc(-c2cnc(N)nc2-c2ccc(OC)cc2)cc1
  3399	1.5	4	1	0	5	-13
5. CN(Cc1ccccc1)C(=O)c1cccnc1
  x	6.6	10	6	4	3	8
6. O=C(CSCc1ccc([N+](=O)[O-])cc1)N/N=C/c1cccnc1
  3958	x	x	x	-9	x	-9
7. COc1cc(S(=O)(=O)N2CCCCCC2)ccc1-n1cnnn1
  10286	5.0	16	13	-18	7	-1
8. CCCCn1c(N)c(N(CC(C)C)C(=O)c2cc(C)oc2C)c(=O)[nH]c1=O
  5518	-2.5	-7	-3	-7	-3	3
9. Fc1cccc(CN2CCN(c3ncccn3)CC2)c1
  19248*	1.5	5	9	3	3	x
10. Cc1ncc(CC(=O)n2cc(C(=O)c3cc(F)ccc3O)cn2)s1
  24032*	5.5	1	3	-28	9	-9
11. COc1sc(SC)cc1/C=N/NC(=O)c1ccncc1
  3943	x	x	x	-15	x	0
12. NC(=O)c1ccccc1O
  5895	x	x	x	-27	x	-10
13. N#Cc1c(Cl)nsc1NN
  4241	2.2	4	3	-21	-10	-1
14. O=C(C1=CC(c2ccc(Br)cc2)CC(OCc2ccc(CO)cc2)O1)N1CCN(Cc2ccc3c(c2)OCO3)CC1 (configuration not stated)
  x	6.9&20	-4&8	0&8	x	-1&-17	x
15. CC(Sc1ccc(Br)cc1)C(N)=O (configuration not stated)
  4443	6.0	4	2	-7	0	0
16. COc1cccc(CN(C)c2nc(-c3cccs3)nc3ccccc23)c1
  2401	4.7	2	-14	4	8	-10
17. CCOc1ccccc1N1CC(C(=O)N(Cc2nnc(-c3ccccc3Cl)o2)C2CC2)CC1=O (configuration not stated)
  5972	3.0	9	-2	-29	3	-2
18. C[C@H](NC(=O)C1CC(=O)N(c2ccc3c(c2)OCCO3)C1)C(=O)N1CCC(C(=O)O)CC1 (some centres not stated)
  4731	5.3	-3	-4	0	1	10
19. O=C(CCCCl)N1CCc2[nH]c3ccccc3c2C1
  u	1.4	-4	2	8	1	x
20. O=C(CSc1n[nH]c(-c2ccncc2)n1)Nc1ccc(Br)cc1
  5650	1.6	-2	-2	-6	2	1
21. Cc1cc(NC(=O)CSc2nc3cc(Cl)ccc3c(=O)n2Cc2ccco2)no1
  3323	5.7	5	7	1	-6	-9
22. COc1ccc(C(=O)COC(=O)C2CCC(=O)N2)cc1 (configuration not stated)
  3303	3.8	8	-2	-27	3	2
23. Cc1ccc(-n2nc(C)c(=O)c(-c3ccccc3)c2NC(=O)C(C)C)cc1
  3542	2.0	3	6	x	2	-3
24. O=C(NCCC1=CCCCC1)C(=O)c1c[nH]c2ccccc12
  2076	11	-2	6	-25	-1	3
25. COc1ccc(Cc2nnc(NC(=O)Cc3cccs3)s2)cc1
  3734	8.2	8	6	-24	-11	x
26. CCOc1cc(C(=O)N(Cc2ccccc2)c2ccc(C)cc2)ccc1OCC(=O)N1CCOCC1
  4163	5.2	4	12	-14	2	x
27. O=C(O)c1ccc(S(=O)(=O)NC2CCCCCC2)cc1
  4977	2.4	0	9	-15	7	1
28. CCOc1ccccc1N1CCN(C(=O)c2csc(C)c2CC)CC1
  3992	-12	16	11	-16	19	-11
29. CCN(C(=O)CSc1nnc(-c2ccco2)n1C)c1c(N)n(Cc2ccccc2)c(=O)[nH]c1=O
  5411	6.9	9	13	-9	5	x
30. Cc1ccc(NC(=O)CN(C)C(=O)CNC(=O)c2ccc3c(c2)OCO3)cc1
  u	3.4	6	8	-21	13	-11
31. COC(=O)C1=C(c2ccc(C(C)=O)cc2)CC2CCC1N2C(=O)NCc1ccc2c(c1)OCO2 (configuration not stated)
  x	4.6	9	4	x	3	x
32. COc1cc(C(=O)NCC(c2ccco2)N2CCCC2)ccc1OCc1ccc(Cl)cc1Cl (configuration not stated)
  3661	6.1	3	16	3	20	x
33. CCC(C)c1ccc(-c2cc(C(=O)OCC(=O)Nc3cc(C)on3)c3ccccc3n2)cc1 (configuration not stated)
  3222	5.9	6	1	-6	-4	19
34. CN(C)CCNC(=O)C(C(=O)c1ccccc1)n1ccccc1=O (configuration not stated)
  23550*	-0.2	2	-2	-12	-2	-9
35. CCC(=O)N1CCCc2cc(S(=O)(=O)NCc3cccs3)ccc21
  3633	0.3	x	x	-7	5	4
36. O=C(Cc1ccccc1)NN=Cc1ccccc1OCc1ccc(Cl)cc1
  x	-3.9	18	3	x	10	x
37. Cc1ccc(-c2nc3ccccc3c(=O)n2CCCN2CCOCC2)cc1
  4429	-3.5	-5	0	-14	-1	-13
38. CC(N=C1NS(=O)(=O)c2ccccc21)C(=O)NCc1ccc2c(c1)OCO2 (configuration not stated)
  5565	4.2	x	x	-11	-2	10
39. CC1=C(C(=O)Nc2ccccc2F)C(c2ccsc2)C2=C(CC(C)(C)CC2=O)N1 (configuration not stated)
  2009	-1.3	0	-1	-20	3	-1
40. C=CCOc1c(Cl)cc(/C=N/O)cc1OC
  12826	x	x	x	-30	x	3
41. COC(=O)C1=C(c2ccc(C(C)=O)cc2)CC2CCC1N2C(=O)N1CCC(O)CC1 (configuration not stated)
  x	1.6	6	6	x	-2	x
42. O=C(NCc1ccc(Cl)cc1)c1cc(-c2cccs2)on1
  16902*	0.7	3	3	-10	-6	4
43. CCCN(CC(=O)Nc1ccc(F)c(F)c1F)C(=O)CN1C(=O)NC2(CCCCC2)C1=O
  3561	6.6	-2	-2	-6	8	x
44. Cc1cc(C)nc(N2CCCC(C(=O)Nc3cc(F)ccc3C)C2)n1 (configuration not stated)
  22529*	0.4	-2	1	0	-1	4
45. CC(C)OP(=O)(c1ccc(N(C)C)cc1)C(O)c1cccnc1 (configuration not stated)
  3868	1.8	6	0	0	3	2
46. CCCOc1ccc2c3c(c(=O)oc2c1)CCCC3
  2675	10	x	x	-31	-3	3
47. Cc1ccc(-c2c(C#N)c(N)nc3c2CCCC3)s1
  3678	-1.0	x	x	-6	4	2
48. O=C(Cn1cnc2ccccc21)Nc1cccc(S(=O)(=O)N2CCCC2)c1
  4962	2.4	3	3	-1	-1	x
49. Cc1nn(C(C)C(=O)NCc2ccc(Cl)cc2)c(=O)c2cc3occc3n12 (configuration not stated)
  4458	12	-1	-5	-22	9	8
50. COc1ccc(C(=O)COC(=O)CNC(=O)c2ccc(Cl)cc2Cl)c(OC)c1
  5104	7.3	12	0	-12	0	-10
51. COc1cccc(NC(=O)c2ccccc2-c2ccccc2)c1
  4205	x	x	x	-13	x	13
52. NS(=O)(=O)c1ccc(CCNC(=O)C2CCC(CNS(=O)(=O)c3ccc(Br)s3)CC2)cc1 (configuration not stated)
  3867	4.6	-7	-7	-13	3	1
53. COc1cc(CNc2ccc(O)cc2)cc(Br)c1OCc1ccccc1F
  1917	-9.8	9	-2	-26	49	-4
54. Cc1ccc(C2N(c3ccccc3)C(=O)N3CCCN23)cc1 (configuration not stated)
  2035	0.0	-11	10	10	-3	5
55. CCCN1C(=O)C(NC(C)=O)c2ccccc21 (configuration not stated)
  9304	6.8	5	12	-22	0	-5
56. CCN(C(=O)COC(=O)c1cc(NS(=O)(=O)c2ccc(Cl)c([N+](=O)[O-])c2)ccc1O)C1CCCCC1
  2521	-5.5	-10	4	-10	-17	0
57. O=C(c1cccnc1)n1nc(NCc2ccccc2)nc1NCc1ccccc1
  4665	1.0	6	16	-18	0	-10
58. CCCCn1c(N)c(N(CCOC)C(=O)COC(=O)COc2c(C)cccc2C)c(=O)[nH]c1=O
  5493	-0.1	11	3	-27	7	1
59. CCCNC(=O)COC(=O)CCC(=O)c1cccs1
  2324	5.6	1	7	-9	11	0
60. C/C(=C1/SC(N2CCOCC2)=NC1=O)c1ccc(Br)cc1
  3844	1.4	x	x	2	-8	-10

The list goes on, overlapping the part above by 3 compounds.
Sequence of screens – Bead autofluor	Sa RN4220 lethal	Mtb hypoxia rep	Mtb hypoxia rep growth	PrP UTR inh	ugtP null kill	BJeLR lethal
58. CCCCn1c(N)c(N(CCOC)C(=O)COC(=O)COc2c(C)cccc2C)c(=O)[nH]c1=O
  5493	-0.1	11	3	-27	7	1
59. CCCNC(=O)COC(=O)CCC(=O)c1cccs1
  2324	5.6	1	7	-9	11	0
60. C/C(=C1/SC(N2CCOCC2)=NC1=O)c1ccc(Br)cc1
  3844	1.4	x	x	2	-8	-10
61. O=C(COC(=O)/C=C/c1ccc(Br)o1)Nc1ccc2[nH]c(=O)[nH]c2c1
  5930	x	x	x	-18	x	-2
62. O=C(NN1C(=O)CSC1=S)C(=O)NN1C(=O)CSC1=S
  3173	12	15	20	12	22	-30
63. Cc1ccc2nc(SCC(=O)N3c4ccccc4CC3C)c(C)cc2c1 (configuration not stated)
  4685	6.9	x	x	40	4	7
64. Cc1ccc(-c2nc3ccccc3c(=O)n2-c2cccc(C)n2)cc1
  4827	-3.0	0	12	-19	5	2
65. CC(NC(=O)c1ccco1)C(=O)NC(C)c1cc(F)c(Cl)cc1Cl (configuration not stated)
  2859	x	x	x	-19	x	-11
66. COc1ccc(OC)c(NC(=O)N[C@H](Cc2ccccc2)C(=O)NN)c1
  5708	0.2	-5	-13	-13	1	-7
67. CC(C)N(Cc1nc(-c2ccccc2)no1)C(=O)C(C)(C)C
  4885	-1.1	x	x	-17	-1	4
68. COc1ccc(OC)c(S(=O)(=O)Nc2c(C)nn(C)c2C)c1
  x	5.2	3	4	-7	2	x
69. COc1cc2c(c(OC)c1OC)C(c1ccccc1C)CC(=O)O2 (configuration not stated)
  3886	10	0	5	-21	-1	x
70. NC(=O)CSc1nnc(-c2cnccn2)n1Cc1ccco1
  5809	0.3	-4	9	x	-8	-1
71. Cc1c(S(=O)(=O)N2CCN(c3cccc(C(F)(F)F)c3)CC2)c(=O)n(C)c(=O)n1C
  5536	-8.0	5	5	-32	0	0
72. CCOC(=O)CC(C)=NNC(=O)CNc1cccc(Cl)c1C
  x	3.0	-4	8	x	3	x
73. COC(=O)c1ccc(COc2ccc(Cl)cc2)o1
  3301	4.8	2	-9	-43	9	2
74. CCOc1ccc(CN(C)CC(=O)Nc2ccccc2C(=O)NC2CC2)cc1
  u	3.6	5	1	-19	4	x
75. COC(=O)c1sccc1NC(=O)Nc1cccc(Cl)c1Cl
  2544	1.1	3	1	-20	-1	-4
76. O=C(c1cccs1)N1CCN=C1SCc1ccc(F)cc1
  4706	4.5	16	13	-21	-4	7
77. Cc1nc2ccccc2cc1OCc1ccccc1
  11007	24	x	x	-12	4	22
78. CCC(Cc1ccccc1)NC(=O)C1CCC(CNc2c(N3CCCC3)c(=O)c2=O)CC1 (configuration not stated)
  4084	0.4	7	12	-10	3	-2
79. COc1ccc(S(=O)(=O)Nc2ccc3c(c2)CCC3)cc1
  3921	-3.0	-1	-2	-21	-10	-5
80. COc1ccc(NC(=O)Nc2cc(F)ccc2C)cc1
  4577	13	5	15	-23	3	-3
81. O=C(NN=Cc1c(Cl)cccc1Cl)c1cccc(F)c1
  x	7.8	10	9	x	-3	x
82. CC(C)(C)[C@H]1C=C(C(=O)Nc2ccccc2)O[C@@H](OCCCCO)C1
  3789	x	x	x	18	x	0
83. O=C1C=C(NCc2ccco2)C2(CCCCC2)O1
  2930	-8.7	19	4	-18	-5	-6
84. O=C(Nc1ncn[nH]1)c1ccc(Cl)c(S(=O)(=O)Nc2ccc(Cl)cc2)c1
  2006	2.4	-5	7	2	11	-7
85. Nn1c(-c2ccccc2)nc2ccccc2c1=O
  4601	5.2	-1	10	0	17	2
86. O=C(C(NS(=O)(=O)c1cccs1)c1ccccc1)N1CCN(c2ccccc2F)CC1 (configuration not stated)
  7003	4.5	4	8	-5	3	7
87. Cc1[nH]c(=O)[nH]c(=O)c1CSc1nnc(CCCCCNC(=O)OC(C)(C)C)o1
  10220	5.1	2	3	-15	3	5
